Assay outcomes deposited in PubChem BioAssay by several laboratories.
HSV augment: increases HSV replication in cells; HSV replication augmentation in cells, fold increase; maximum fold increase; 220,000 tested, 0.005% active; AID 1956;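 active = peak rise of 1.5-fold or more in the series; tested in PC3 cells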;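 also: first round at 10 µM; read as green reporter fluorescence; hits show the peak of a series up to 25 µM; 1 = signal of infected wells without compound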
RGS16-Gao HTS: regulators of human RGS16-Galphao interaction; bead-based flow cytometry RGS16-Galphao binding, fluorescence; actives lie on both sides; binding response (% of control), % at 10 µM; 220,000 tested, 0.38% active;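 active = below 25% or above 175%, edge rows of some plates excepted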;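 also: Galphao activated by GDP with aluminum fluoride before binding; 100% = wells without compound and 0% = beads without RGS; some results beyond the cut were filed as inactive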
Target sequence (O15492 whole entry, looked up): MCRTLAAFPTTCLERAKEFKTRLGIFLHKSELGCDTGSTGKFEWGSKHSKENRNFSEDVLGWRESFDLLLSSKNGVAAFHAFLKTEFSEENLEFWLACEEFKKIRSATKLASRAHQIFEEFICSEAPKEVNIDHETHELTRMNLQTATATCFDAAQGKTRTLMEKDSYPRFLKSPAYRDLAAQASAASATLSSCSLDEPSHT
Target sequence (P09471 whole entry, looked up): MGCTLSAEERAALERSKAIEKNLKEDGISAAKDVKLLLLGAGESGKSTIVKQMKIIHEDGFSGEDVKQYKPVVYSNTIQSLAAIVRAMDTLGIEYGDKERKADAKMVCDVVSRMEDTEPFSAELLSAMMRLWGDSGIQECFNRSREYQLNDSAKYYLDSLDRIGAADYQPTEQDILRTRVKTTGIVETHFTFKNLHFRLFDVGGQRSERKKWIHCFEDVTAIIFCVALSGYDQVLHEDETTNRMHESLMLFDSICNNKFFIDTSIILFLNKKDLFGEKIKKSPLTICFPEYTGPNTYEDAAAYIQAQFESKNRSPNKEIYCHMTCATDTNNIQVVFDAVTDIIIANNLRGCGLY
INS promoter inh: TRM-6 insulin promoter activity inhibition | TRM-6 cells (human fetal islet line), insulin promoter-eGFP reporter, imaging; reporter expression induced with tamoxifen | inhibition, % at 2 µM | 130,000 tested, 0.9% active | AID 1273;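 active = inhibition above the mean plus 3 SD, with well images judged a real hit on visual review, cut at about 60% in these data, passing the limit was not always enough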
GALR2 agonist: agonists of human galanin receptor 2 (GALR2); O43603; GALR2-expressing cells, agonist activation read-out; activation, %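 (tested at 5 µM)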; 140,000 tested, 0.48% active; AID 803;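 active = above mean plus 3 SD of all compounds, about 5% in these data, not always enough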;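 also: 0% = vehicle buffer wells and 100% = reference agonist at full effect; tested in CHO reporter cells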
PKD1 inh: inhibitors of human PKD1 kinase. inhibition, %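 (about 10 µM by stock and volumes)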. Q15139. 200,000 tested, 0.056% active. PKD1 kinase fluorescence polarization assay;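 active = inhibition of 50% or more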;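 also: controls were vehicle for no effect and a reference inhibitor for full effect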
INS promoter inh cell count: also measured in INS promoter inh; calls as there; normalized cell count, %; measured here: cell count, toxicity; reference of the scale not given here;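 cells exposed to compound for 48 h; stained nuclei by imaging scaled within each plate; lower means fewer cells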
HSV augment primary fold: further read-out of HSV augment, marked with its call; fold increase; compound at 10 µM; measured here: primary screen fold increase 10 uM; tested in PC3 cells;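 GFP signal in the first replicate; 1 = infected wells without compound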
* marks the source's active call; other numbers are inactive results; i = inactive; · = not tested or not shown.

Labels used below: A = HSV augment; B = HSV augment primary fold; C = RGS16-Gao HTS; D = INS promoter inh; E = INS promoter inh cell count; F = GALR2 agonist; G = PKD1 inh
#1 CC(=O)Nc1c(S(=O)(=O)c2ccccc2)c2nc3ccccc3nc2n1Cc1ccccc1
  A = i | B = 0.95 | C = 100 | D = -113 | E = 91 | F = 10 | G = -3
#2 COc1ccc(C(c2nnnn2Cc2cccs2)N2CCN(c3ccccc3F)CC2)cc1 (stereo not drawn)
  A = i | B = 0.91 | C = 102 | D = · | E = · | F = -0.8 | G = -2
#3 Cc1nc2c(C(=O)NCc3ccccc3Cl)c[nH]n2c(=O)c1Cl
  A = i | B = 0.97 | C = 104 | D = 7 | E = 49 | F = -0.2 | G = -13
#4 Nc1cccc(S(=O)(=O)c2ccc(N)c(N)c2)c1
  A = i | B = 0.96 | C = 94 | D = 47 | E = 121 | F = · | G = 6
#5 Cc1ccc2occ(CN3CCN(Cc4ccccc4)CC3)c(=O)c2c1
  A = · | B = · | C = 101 | D = -17 | E = 137 | F = -1.5 | G = -14
#6 CN(C)CCCNC(=O)c1ccc(Oc2ccccc2)cc1
  A = i | B = 0.85 | C = 106 | D = -100 | E = 39 | F = · | G = -4
#7 COc1ccccc1NC(=S)N(Cc1ccc(C(=O)O)cc1)Cc1ccc(OC)c(OC)c1
  A = i | B = 0.83 | C = 99 | D = 7 | E = 57 | F = · | G = -3
#8 CC1=C(C#N)C(NC(=O)c2ccc(Cl)cc2)(C(F)(F)F)C(=O)N1 (stereo not drawn)
  A = i | B = 0.96 | C = 97 | D = -3 | E = 126 | F = -1.1 | G = -1
#9 O=C(COc1ccc(-c2ccccc2)cc1)NNC(=O)NC1CCCCC1
  A = i | B = 1 | C = 49 | D = · | E = · | F = · | G = -4
#10 CCOC(=O)/C(C)=N/NC(=O)c1ccc([N+](=O)[O-])cc1
  A = i | B = 0.9 | C = 101 | D = · | E = · | F = · | G = -6
#11 O=C(CN1CCN(c2ccc(F)cc2)CC1)Nc1cccnc1Cl
  A = i | B = 0.93 | C = 102 | D = 32 | E = 98 | F = · | G = 7
#12 Cc1ccc(OCCCSc2ncccn2)cc1C
  A = i | B = 0.95 | C = · | D = -193 | E = 62 | F = -1.8 | G = -17
#13 Cc1ccc(-n2ncc(-c3nnc(SCC(=O)NC4CCCC4)o3)c2N)cc1C
  A = · | B = · | C = 104 | D = 9 | E = 83 | F = -2.1 | G = 3
#14 O=C(CCN1CCN(CC(=O)Nc2ccccc2F)CC1)Nc1ccccc1F
  A = i | B = 0.92 | C = 100 | D = -105 | E = 125 | F = -1.0 | G = -8
#15 Cc1nn(CC(=O)NCc2ccccn2)c(C)c1[N+](=O)[O-]
  A = i | B = 0.98 | C = 99 | D = · | E = · | F = · | G = 7
#16 Cc1cc(OC2CCCCC2)nc(-c2ccccc2O)n1
  A = i | B = 0.7 | C = 102 | D = 62 | E = 113 | F = -1.2 | G = 10
#17 CCOc1ccc(NC2=C(Cl)C(=O)N(C3CCCCC3)C2=O)cc1
  A = i | B = 0.91 | C = 114 | D = -40 | E = 107 | F = -0.7 | G = 1
#18 COc1c(Cl)cc(C(=O)Nc2ccc(Cl)cn2)cc1Cl
  A = i | B = 0.64 | C = 104 | D = -25 | E = 135 | F = 1.9 | G = -3
#19 CC1CCc2nc3ccccc3c(C(=O)OCC(=O)N3CCc4ccccc43)c2C1 (stereo not drawn)
  A = i | B = 0.92 | C = 101 | D = -23 | E = 91 | F = 0.2 | G = 12
#20 Cc1c(C(=O)Oc2ccc(Cl)cc2)n(C)oc1=O
  A = i | B = 0.97 | C = 104 | D = · | E = · | F = · | G = ·
#21 CCCOc1ccc(Cc2c(Cl)nc(SC)nc2OC)cc1
  A = i | B = 0.89 | C = 96 | D = -57 | E = 126 | F = -0.7 | G = -10
#22 CC/C(=N\NC(=O)c1c[nH]c2ccccc12)c1cccs1
  A = i | B = 0.91 | C = 99 | D = 33 | E = 114 | F = -0.7 | G = -2
#23 CCn1c(Cc2ccccc2)nnc1SCC(=O)Nc1nccs1
  A = i | B = 0.94 | C = 78 | D = -80 | E = 134 | F = -2.3 | G = 1
#24 COC(=O)/C(=N/Nc1ccccc1C)Sc1nnc(C(O)c2ccccc2)n1-c1ccccc1 (stereo not drawn)
  A = i | B = 0.84 | C = 98 | D = · | E = · | F = -0.6 | G = 1
#25 CN(C)c1cccc(NC(=O)Cc2ccc(F)cc2)c1
  A = i | B = 0.95 | C = 103 | D = · | E = · | F = -1.4 | G = 7
#26 Fc1ccc(NC(=S)N2CCSC2c2cccs2)cc1 (stereo not drawn)
  A = i | B = 0.96 | C = 58 | D = -108 | E = 37 | F = · | G = -1
#27 Nc1nc2c(c3c1c(=O)oc1ccccc13)CCCCC2
  A = i | B = 0.87 | C = 98 | D = -12 | E = 111 | F = -2.2 | G = 10
#28 COC(=O)c1c(S(N)(=O)=O)c2ccccc2n1C
  A = i | B = 0.81 | C = 102 | D = 6 | E = 106 | F = -2.5 | G = -2
#29 O=C(CSc1nc2cc3ccccc3cc2[nH]1)Nc1ccc(F)cc1
  A = i | B = 0.91 | C = 102 | D = -32 | E = 109 | F = -0.9 | G = -1
#30 C=CCc1ccc(OCCCCCN2CCOCC2)c(OC)c1
  A = i | B = 0.84 | C = 104 | D = · | E = · | F = -1.8 | G = 1
#31 CCOc1nc(N2CCOCC2)nc(N2CCOCC2)n1
  A = i | B = 0.97 | C = 93 | D = 59 | E = 128 | F = · | G = -4
#32 CC(C)(C)NC(=O)CN(C(=O)c1csnn1)c1cccc2c1CCCC2
  A = i | B = 1 | C = 101 | D = · | E = · | F = · | G = -5
#33 Cc1cc(NC(=O)/C=C/c2ccccc2Cl)no1
  A = i | B = 0.97 | C = 99 | D = 39 | E = 109 | F = 1.5 | G = 7
#34 Cc1cccc(-c2noc(CCC(=O)NCC3CCCO3)n2)c1 (stereo not drawn)
  A = i | B = 1 | C = 79 | D = 7 | E = 147 | F = -3.4 | G = 1
#35 CC1CCCC(C)N1C(=O)CSc1nnc(COc2cccc3cccnc23)o1 (stereo not drawn)
  A = i | B = 0.91 | C = 94 | D = -86 | E = 86 | F = · | G = -7
#36 O=C(CNC(=O)c1ccco1)OCc1cccc(Cl)c1
  A = i | B = 0.96 | C = 105 | D = · | E = · | F = -1.4 | G = 2
#37 CC(C)(C)NC(=O)CSc1ncnc2c1nnn2Cc1ccccc1Cl
  A = i | B = 1 | C = 102 | D = 10 | E = 132 | F = -2.0 | G = -7
#38 Cc1ccccc1NC(=O)Cc1ccccc1
  A = i | B = 0.86 | C = 106 | D = -19 | E = 90 | F = -0.9 | G = -5

In the list so far, 7 have fluorine:
Labels used below: A = HSV augment; B = HSV augment primary fold; C = RGS16-Gao HTS; D = INS promoter inh; E = INS promoter inh cell count; F = GALR2 agonist; G = PKD1 inh
#2 COc1ccc(C(c2nnnn2Cc2cccs2)N2CCN(c3ccccc3F)CC2)cc1 (stereo not drawn)
  A = i | B = 0.91 | C = 102 | D = · | E = · | F = -0.8 | G = -2
#8 CC1=C(C#N)C(NC(=O)c2ccc(Cl)cc2)(C(F)(F)F)C(=O)N1 (stereo not drawn)
  A = i | B = 0.96 | C = 97 | D = -3 | E = 126 | F = -1.1 | G = -1
#11 O=C(CN1CCN(c2ccc(F)cc2)CC1)Nc1cccnc1Cl
  A = i | B = 0.93 | C = 102 | D = 32 | E = 98 | F = · | G = 7
#14 O=C(CCN1CCN(CC(=O)Nc2ccccc2F)CC1)Nc1ccccc1F
  A = i | B = 0.92 | C = 100 | D = -105 | E = 125 | F = -1.0 | G = -8
#25 CN(C)c1cccc(NC(=O)Cc2ccc(F)cc2)c1
  A = i | B = 0.95 | C = 103 | D = · | E = · | F = -1.4 | G = 7
#26 Fc1ccc(NC(=S)N2CCSC2c2cccs2)cc1 (stereo not drawn)
  A = i | B = 0.96 | C = 58 | D = -108 | E = 37 | F = · | G = -1
#29 O=C(CSc1nc2cc3ccccc3cc2[nH]1)Nc1ccc(F)cc1
  A = i | B = 0.91 | C = 102 | D = -32 | E = 109 | F = -0.9 | G = -1
